Screens (PubChem BioAssay)
LASV entry inh = inhibitors of Lassa virus binding or cell entry | Lassa virus pseudotype entry inhibition, cell reporter; control for the full effect not named in the record | Potency, µM (titrated, usually from 37.9 µM), without a hit: at the highest dose activity change, negative = inhibition, actives largely listed as inhibitors | 1.2% of 300,000 active | AID 540256; active means well fitted inhibition curve with a large enough effect; inconclusive means small, poorly fitted or top-dose-only effect, or effect the other way; inactive means flat fitted curve, though single readings scatter; tested in HEK293 cells; further: on the % scale 0 is the no-effect control and ±100 the full control effect; nearly all actives have a fitted effect of over 50% in size; luciferase read-out
MARV entry inh = Marburg virus entry inhibition | Marburg virus pseudotyped entry inhibition, cell reporter; control for the full effect not named in the record; about a third of the inactives were read at about 46 µM | Potency, µM (doses to about 37.8 µM), for the others: at the highest dose activity change, negative = inhibition, most hits filed as inhibitors | 1.8% of 300,000 active; active = well fitted inhibition curve with a large enough effect; inconclusive = small, poorly fitted or top-dose-only effect, or effect the other way; inactive = flat fitted curve, though single readings scatter; tested in HEK293 cells; about a fifth of its hits are not listed in these tables; further: on the % scale 0 is the no-effect control and ±100 the full control effect; luciferase read-out
2A StopGo = FMDV 2A StopGo reporter, luciferase signal. human cells with a luciferase reporter of 2A StopGo recoding; control for the full effect not named in the record. Potency, µM (top dose mostly 57.9 µM), inactives show at the top dose signal change, negative = less light. 1.2% of 410,000 active. AID 1159524; active = well fitted falling curve with a large enough effect; inconclusive = small, poorly fitted or top-dose-only effect; inactive = no such curve, though single readings can be large or run the other way; tested in HEK293T cells; further: on the % scale 0 is the no-effect control and ±100 the full control effect; nearly all actives have a fitted effect of over 45% in size; luciferase light after 4 h
SARS PLpro yeast = blocks SARS-CoV papain-like protease in a yeast assay. S. cerevisiae expressing SARS-CoV PLpro, growth rescue; control for the full effect not named in the record. Potency, µM (titrated, usually from 32.9 µM), without a hit: top-dose activity, positive = growth rescue. 0.19% of 330,000 active. AID 485353; active means well fitted rising curve with a large enough effect; inconclusive means small, poorly fitted or top-dose-only effect; inactive means no such curve, though single readings can be large or run the other way; further: 0% is about no effect; nearly all actives have a fitted effect of over 55% in size; growth read by luminescence after 48 h
Cruzain Triton = cruzain (T. cruzi) inhibition with detergent. P25779. purified cruzain, Z-FR-AMC fluorescence, 0.01% Triton. 0.43% of 200,000 active. Potency, µM, without a hit: max response, negative = inhibition, most hits filed as inhibitors. AID 1478;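 further: plate controls were neutral wells for no effect and buffer without enzyme for full effect; nearly all actives have a fitted effect of over 40% in size; top concentration of the series not given in the record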
Target sequence (P25779 123-467 limits assumed): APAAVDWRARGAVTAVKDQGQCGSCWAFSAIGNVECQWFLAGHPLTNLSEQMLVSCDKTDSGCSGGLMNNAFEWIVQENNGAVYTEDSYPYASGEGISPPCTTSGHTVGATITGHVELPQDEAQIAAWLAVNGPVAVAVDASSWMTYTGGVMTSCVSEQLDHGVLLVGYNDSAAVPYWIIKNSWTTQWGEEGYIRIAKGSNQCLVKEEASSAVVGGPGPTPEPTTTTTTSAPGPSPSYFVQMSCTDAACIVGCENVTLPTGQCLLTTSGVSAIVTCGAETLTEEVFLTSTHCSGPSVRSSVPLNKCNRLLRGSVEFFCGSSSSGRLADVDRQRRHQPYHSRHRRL
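15 min RT preincubation of 1.5 nM cruzain with compound, then 2 uM Z-FR-AMC added; kinetic AMC fluorescence, 60 s delta. Triton X-100 0.01%, pH 5.5.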
RE007 growth inh = less growth of the S. pombe RE007 Vpr strain. AID 651644. Potency, µM (series often up to 92.2 µM), for the others: top-dose activity change, negative = less growth. S. pombe RE007 Vpr strain, BacTiter-Glo ATP luminescence, 24 h; control for the full effect not named in the record. 0.21% of 360,000 active; active = well fitted falling curve with a large enough effect; inconclusive = small, poorly fitted or top-dose-only effect; inactive = no such curve, though single readings can be large or run the other way;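 further: on the % scale 0 is the no-effect control and ±100 the full control effect; nearly all actives have a fitted effect of over 50% in size; the assay follows cell death caused by Vpr and the record does not say whether a fall means rescue or toxicity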
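Fission yeast RE007 carrying one integrated HIV-1 vpr copy, seeded at OD 0.01 in PMG+AL medium with 23 nL pinned compound. Grown 24 h at 30 degrees; viability read by BacTiter-Glo luminescence after 5 min.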
Cruzain noTriton = cruzain (T. cruzi) inhibition without detergent; P25779; purified cruzain, Z-FR-AMC fluorescence, no detergent; Potency, µM, inactives show max response, negative = inhibition, actives largely listed as inhibitors; 2.3% of 200,000 active; AID 1476;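 further: plate controls were enzyme without inhibitor for no effect and buffer without enzyme for full effect; nearly all actives have a fitted effect of over 40% in size; top concentration of the series not given in the record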
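Purified cruzain at 1.5 nM, pre-incubated 15 min with compound at room temperature in 100 mM sodium acetate pH 5.5, 5 mM DTT, 0.00005% Triton X-100. Reaction started with 2 uM Z-FR-AMC; AMC fluorescence increase over 60 s gives rate.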
NS1 function inh = inhibitors of influenza NS1 protein function. S. cerevisiae slowed by influenza A NS1, growth recovery by OD600. Potency, µM (top dose mostly 46.1 µM), for the others: at the top dose activity, positive = more growth. 0.4% of 270,000 active. AID 2326; active means well fitted rising curve with a large enough effect; inconclusive means small, poorly fitted or top-dose-only effect; inactive means no such curve, though single readings can be large or run the other way; further: nearly all actives have a fitted effect of over 50% in size
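Compounds were scored for reversing the slow growth caused by influenza A NS1 in S. cerevisiae, measured by optical density at 600 nm. Assay medium contained 2% galactose at pH 6.0; NS1-free yeast of the same strain were the positive control.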
* marks the source's active call; other numbers are inactive results; & = joins results of further samples; [ ] = remark or other dose. Unless noted, the call rests on the fitted dose curve; in most records, active means well fitted curve in the direction sought with a large enough effect; inconclusive means small, poorly fitted or top-dose-only effect, or another doubt; inactive means no such curve, though single readings can be large; an effect the other way counts as inactive or inconclusive. Potency means the concentration at half of the fitted maximal effect.

`COc1ccc(C(=O)N(Cc2ccco2)C(C(=O)NC2CCCC2)c2ccc(O)cc2)cc1OC` (configuration not stated) gave LASV entry inh inconclusive, MARV entry inh inconclusive, 2A StopGo -13.3%, SARS PLpro yeast -0.1%, Cruzain Triton 1.3%, RE007 growth inh 14.1%, Cruzain noTriton -5.2% and NS1 function inh -27.9%.
For O=C(NNC(=O)c1ccc(Br)o1)c1ccc(NS(=O)(=O)c2cccs2)cc1 the results were LASV entry inh 0.6%, MARV entry inh -24.6%, 2A StopGo -2.7% and RE007 growth inh 1.0%.
Screening O=CN1Cc2[nH]c3ccccc3c2N(c2ccc(Cl)cc2)C1=O returned LASV entry inh 3.6%, MARV entry inh -11.0%, 2A StopGo 55.4%[activator], SARS PLpro yeast -2.6%, Cruzain Triton 1.7%, RE007 growth inh 7.3%, Cruzain noTriton 10.2% and NS1 function inh -3.7%.
Screening O=c1[nH]cnc2c1oc1ccccc12 returned LASV entry inh 18.2%, MARV entry inh 11.7%, 2A StopGo 27.7%, SARS PLpro yeast -15.9%, Cruzain Triton 0.1%, RE007 growth inh 0.2%, Cruzain noTriton -4.1% and NS1 function inh 4.8%.
For Cc1noc(C)c1C(c1ccccc1)S(=O)(=O)c1ccccc1 (configuration not stated) the results were LASV entry inh inconclusive, MARV entry inh inconclusive, 2A StopGo 0.0%, SARS PLpro yeast 2.4%, Cruzain Triton -0.8%, RE007 growth inh 9.7%, Cruzain noTriton -12.4% and NS1 function inh -16.2%.
Screening CN(c1ccccc1)S(=O)(=O)c1ccc(Cl)c(C(=O)NCc2ccco2)c1 returned LASV entry inh -5.1%[46.1 µM], MARV entry inh inconclusive, 2A StopGo -15.1%, SARS PLpro yeast 13.0% and RE007 growth inh -6.1%.
`CN(CCOCCOc1ccc(Cl)cc1Br)Cc1ccccc1` gave LASV entry inh inconclusive, MARV entry inh inconclusive, 2A StopGo 2.3%, SARS PLpro yeast -1.9%, RE007 growth inh -1.2% and NS1 function inh -5.6%.
Cc1ccnc(NC(=O)c2ccccc2NC(=O)C(C)(C)C)c1 was read as LASV entry inh inconclusive, MARV entry inh inconclusive, 2A StopGo -13.0%, SARS PLpro yeast -8.9%, Cruzain Triton 1.4%, RE007 growth inh 1.4%, Cruzain noTriton -1.0% and NS1 function inh -3.9%.
`C=CS(=O)(=O)c1sc(Cl)c(N2CCOCC2)c1[N+](=O)[O-]` gave LASV entry inh 3.16µM*, MARV entry inh 5.01µM*, 2A StopGo 25.1µM*, SARS PLpro yeast -6.3%, RE007 growth inh -25.3% and NS1 function inh -77.2%.
Screening COC(=O)c1ccc(NC(=O)CN2CCN(S(=O)(=O)c3cc(Cl)ccc3OC)CC2)cc1 returned LASV entry inh -2.3%, MARV entry inh -8.9%&-8.9%, 2A StopGo -9.7%, SARS PLpro yeast -20.7%, Cruzain Triton -6.5%, RE007 growth inh 2.2%, Cruzain noTriton inconclusive and NS1 function inh -52.1%.
For N/C(Cc1cccc2ccccc12)=N\OC(=O)COc1ccccc1 the results were LASV entry inh 6.1%, MARV entry inh 1.0%, 2A StopGo -2.0%, SARS PLpro yeast -40.3%, Cruzain Triton -10.1%, RE007 growth inh 4.2%, Cruzain noTriton -8.2% and NS1 function inh -1.9%.
`COc1ccc(NC(=O)N2CCCCCC2)cc1` gave LASV entry inh 7.7%, MARV entry inh inconclusive, 2A StopGo 47.5%[activator], SARS PLpro yeast -2.5%, RE007 growth inh 22.2% and NS1 function inh 3.7%.
Screening CC12CC[C@H]3[C@@H](CCC4(O)C[C@H](O)CCC34/C=N/NC(=O)c3ccccc3Cl)C1(O)CCC2C1=CC(=O)OC1 (some centres not stated) returned 2A StopGo -22.0%, SARS PLpro yeast -2.7%, RE007 growth inh 13.1% and NS1 function inh -3.3%.
Screening CCN(CC)c1ccc(N=Cc2c(O)n(-c3ccccc3C)c(=O)[nH]c2=O)cc1 returned LASV entry inh -13.4%, MARV entry inh 9.4%&9.4%, SARS PLpro yeast -1.4%, Cruzain Triton 1.4%, RE007 growth inh -19.3%, Cruzain noTriton -2.1% and NS1 function inh -0.7%.
For Cc1sc2nc(C3CC3)nc(N3CCN(S(=O)(=O)c4ccc(F)cc4)CC3)c2c1C the results were LASV entry inh -22.6%, MARV entry inh inconclusive, SARS PLpro yeast -0.3%, Cruzain Triton -1.8%, RE007 growth inh 5.8%, Cruzain noTriton 15.8µM* and NS1 function inh inconclusive.
`Cc1ccc(NS(=O)(=O)c2ccc3c(c2)NC(=O)CCS3)cc1F` gave LASV entry inh 23.3%&1.3%[46.1 µM], MARV entry inh 4.0%&4.0%[46.1 µM], 2A StopGo 0.0%&6.2%, SARS PLpro yeast 19.4%, Cruzain Triton -10.5%, RE007 growth inh 11.8%, Cruzain noTriton -5.4% and NS1 function inh 4.3%.
For Cn1c(=O)c2c(nc(N3CCOCC3)n2C)n(C)c1=O the results were LASV entry inh 12.9%, MARV entry inh -13.9%&-13.9%, 2A StopGo -0.6%, SARS PLpro yeast 2.9%, Cruzain Triton 1.0%, RE007 growth inh 11.1%, Cruzain noTriton -2.7% and NS1 function inh 7.3%.
`Cn1c(=O)c2sccc2n2c(CCCC(=O)Nc3ccc(Oc4ccccc4)cc3)nnc12` gave LASV entry inh -8.8%[46.1 µM], 2A StopGo inconclusive, Cruzain Triton -2.2% and Cruzain noTriton inconclusive.
CCCn1c(OC)nc2c1c(=O)n(C)c(=O)n2C was read as 2A StopGo -13.5%, SARS PLpro yeast 0.3%, Cruzain Triton -0.1%, RE007 growth inh 17.0%, Cruzain noTriton -3.3% and NS1 function inh -2.3%.
Screening CCOC(=O)c1sc(NC(=O)COC(=O)c2ccco2)nc1C returned LASV entry inh inconclusive, MARV entry inh 11.9%, 2A StopGo 16.7%, SARS PLpro yeast 1.8%, Cruzain Triton -4.2%, RE007 growth inh -1.3%, Cruzain noTriton -3.9% and NS1 function inh 1.8%.
Screening CCOc1ccc(NC(=O)NNC(=O)c2cccnc2)cc1 returned LASV entry inh 29.7%[46.1 µM], MARV entry inh -3.3%[46.1 µM], 2A StopGo 20.1%, SARS PLpro yeast 2.5%, RE007 growth inh -16.0% and NS1 function inh -15.8%.
O=C(Cc1ccc([N+](=O)[O-])cc1)NC1CCCCCC1 was read as 2A StopGo -13.4%, SARS PLpro yeast 3.0%, RE007 growth inh 0.2% and NS1 function inh -4.1%.
`C=CCn1c(O)c(C(C)=Nc2cccc(C(=O)O)c2)c(=O)[nH]c1=O` gave LASV entry inh 17.4%[46.1 µM], MARV entry inh 13.5%[46.1 µM], 2A StopGo -11.2%, SARS PLpro yeast 0.5%, RE007 growth inh 4.0% and NS1 function inh -2.1%.
`CCOC(=O)CC1C(=O)NCCN1S(=O)(=O)c1ccc(Br)cc1` (configuration not stated) gave LASV entry inh -20.9%, MARV entry inh -17.2%[46.1 µM], 2A StopGo -10.3%, SARS PLpro yeast 0.0%, RE007 growth inh -0.5% and NS1 function inh -0.6%.
For O=P(C1=C(N2CCOCC2)/C(=C\c2ccccc2)CC1)(N1CCOCC1)N1CCOCC1 the results were LASV entry inh inconclusive, MARV entry inh -1.2%, SARS PLpro yeast 4.2%, Cruzain Triton -0.9%, RE007 growth inh 10.5%, Cruzain noTriton inconclusive and NS1 function inh -15.6%.
For Cc1onc(-c2c(Cl)cccc2Cl)c1-c1nnc(-c2ccc(Cl)cc2)o1 the results were LASV entry inh inconclusive, MARV entry inh inconclusive, 2A StopGo inconclusive, SARS PLpro yeast 0.6%, RE007 growth inh -10.4% and NS1 function inh 0.0%.
Screening Cc1ccc2oc(-c3ccc(NC(=O)c4cccc(F)c4)c(C)c3)nc2c1 returned LASV entry inh 4.0%[46.1 µM], 2A StopGo 52.1%[activator], Cruzain Triton 0.8% and Cruzain noTriton -2.8%.
Screening COc1ccc(N2CCN(c3ccc(-c4nc(-c5cccc(C)c5)no4)cc3[N+](=O)[O-])CC2)cc1 returned LASV entry inh 25.0%[46.1 µM], MARV entry inh 14.1%[46.1 µM], 2A StopGo -4.7%, Cruzain Triton -3.8% and Cruzain noTriton -4.1%.
Screening CSc1ncccc1C(=O)OCc1ccccc1F returned LASV entry inh -12.1%, MARV entry inh 6.5%, 2A StopGo 50.8%[activator], SARS PLpro yeast 4.6%, Cruzain Triton -1.7%, RE007 growth inh -12.1%, Cruzain noTriton -4.1% and NS1 function inh -17.5%.
For Cc1[nH]nc(-c2ccc(O)cc2O)c1Oc1ccccc1 the results were LASV entry inh inconclusive, MARV entry inh inconclusive, SARS PLpro yeast 18.9%, Cruzain Triton -9.2%, RE007 growth inh 15.6%, Cruzain noTriton -0.4% and NS1 function inh 2.6%.
Cc1cccc(NC(=O)Cn2cnc3c(oc4ccccc43)c2=O)c1C was read as LASV entry inh -15.9%, MARV entry inh inconclusive, 2A StopGo -1.3%, SARS PLpro yeast 0.1% and RE007 growth inh 0.0%.
Screening Brc1ccc(OCc2nc(-c3ccccn3)n[nH]2)cc1 returned LASV entry inh -26.7%, MARV entry inh -25.9%, 2A StopGo -1.5%, SARS PLpro yeast inconclusive, Cruzain Triton -7.6%, RE007 growth inh inconclusive, Cruzain noTriton 5.2% and NS1 function inh -200.4%.
For COc1ccc(OC(C)C(=O)N2CCC(C)CC2)cc1 (configuration not stated) the results were LASV entry inh -5.3%, MARV entry inh 11.2%, 2A StopGo 0.0%, SARS PLpro yeast -0.3%, Cruzain Triton -4.7%, RE007 growth inh 18.6%, Cruzain noTriton 6.1% and NS1 function inh -19.7%.
`O=C(Cc1ccc(Cl)cc1)Nc1ccc(NC(=O)c2cccs2)cc1` gave LASV entry inh -12.4%, MARV entry inh -21.7%[46.1 µM], 2A StopGo 4.9%, SARS PLpro yeast -0.5% and RE007 growth inh -1.9%.
CCC(C)n1c(-c2cccc(S(=O)(=O)N3CCOCC3)c2)n[nH]c1=S (configuration not stated) was read as LASV entry inh -8.3%, MARV entry inh 12.9%, 2A StopGo -18.3%, SARS PLpro yeast 0.1% and RE007 growth inh -3.2%.
